Screening results from PubChem.
A1 inh – inhibitors of the anti-apoptotic protein A1, read as caspase activation; MEF A1-2A-BIM cells, Caspase-Glo 3/7 luminescence, 3 h; percent of clofoctol response, vehicle zero; 330,000 tested, 0.066% active; AID 2462; caspase activation, % (test concentration not listed);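 active means over half of replicate activation scores above 10%, or exactly half above 10 with the replicate mean above 10; inconclusive means replicate mean below 10 yet half the replicates above 10; inactive means over half of replicates below 10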;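 further: wells of about 30 µL received 50 nL stock; many hits fall short of the cut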
AF4-AF9 inh – inhibitors of human MLL-AF4/AF9 interaction | P42568 | AlphaScreen, biotin-AF4 peptide binding to FLAG-AF9 | inhibition, % at 10 µM | 350,000 tested, 0.47% active | AID 651704;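 active means every replicate reaching a set inhibition limit, whatever the replicate mean, cut at about 25% in these data; inconclusive means mean inhibition reaches that limit but some replicates miss it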;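 further: 0% = plate neutral control median and 100% = total signal loss; the record names both 10 and 1 µM as test concentration; the first replicate is given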
Target sequence (P42568 whole entry, looked up): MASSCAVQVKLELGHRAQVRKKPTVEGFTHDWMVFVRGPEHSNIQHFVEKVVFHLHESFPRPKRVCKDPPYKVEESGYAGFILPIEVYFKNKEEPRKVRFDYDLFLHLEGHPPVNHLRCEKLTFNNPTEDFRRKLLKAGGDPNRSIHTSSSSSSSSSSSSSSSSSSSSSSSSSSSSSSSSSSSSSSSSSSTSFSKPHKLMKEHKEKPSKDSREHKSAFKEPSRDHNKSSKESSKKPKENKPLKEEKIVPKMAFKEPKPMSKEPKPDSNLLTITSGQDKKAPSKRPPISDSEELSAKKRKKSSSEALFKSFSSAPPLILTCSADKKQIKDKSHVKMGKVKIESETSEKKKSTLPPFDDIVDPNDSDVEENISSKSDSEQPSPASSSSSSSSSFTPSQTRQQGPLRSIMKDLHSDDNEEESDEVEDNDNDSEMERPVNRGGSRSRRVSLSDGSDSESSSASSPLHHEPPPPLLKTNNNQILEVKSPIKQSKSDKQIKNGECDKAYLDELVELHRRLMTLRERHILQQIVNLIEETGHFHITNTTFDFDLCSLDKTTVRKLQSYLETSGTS
Ecoli growth – E. coli growth inhibition | Escherichia coli growth, OD600, 23 h; hits give low values | OD600 absorbance (no concentration beside the values) | 330,000 tested, 0.21% active;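 active means OD600 absorbance below the run mean of sample wells minus 3.6 SD, in any replicate, cut at about 0.56 in these data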;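 further: stock transfer was 300 nL into about 60 µL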
UCH37 DUB inh – human UCH37 deubiquitinating enzyme inhibition; purified proteasome/UCH37, Ub-AMC cleavage fluorescence; inhibition, % (concentration not given with the values); 330,000 tested, 0.33% active; AID 588478;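 active means mean of two replicates above 20%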;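 further: 0% = compound-free wells with enzyme and 100% = wells lacking proteasome; stock transfer was 100 nL into about 20 µL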
Target sequence (Q9Y5K5 whole entry, looked up): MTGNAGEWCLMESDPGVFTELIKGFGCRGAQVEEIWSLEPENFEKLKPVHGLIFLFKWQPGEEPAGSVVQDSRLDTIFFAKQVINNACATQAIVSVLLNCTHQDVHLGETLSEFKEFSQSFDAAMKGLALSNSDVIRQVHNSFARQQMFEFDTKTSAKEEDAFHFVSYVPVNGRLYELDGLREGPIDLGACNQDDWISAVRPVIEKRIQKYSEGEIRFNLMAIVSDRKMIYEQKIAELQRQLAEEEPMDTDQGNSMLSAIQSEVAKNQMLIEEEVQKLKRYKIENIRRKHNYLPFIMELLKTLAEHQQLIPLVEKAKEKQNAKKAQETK
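Reagent: Ub-AMC substrate; assay system: Proteasome-associated human UCH37 deubiquitinase; controls: no-proteasome and no-compound wells; read-out: % inhibition of Ub-AMC cleavage fluorescence; timing: 30 min preincubation with enzyme, 25 min cleavage at room temperature; signal: AMC fluorescence from Ub-AMC cleavage, excitation 355 nm, emission 460 nm; buffer or medium: Tris-HCl pH 7.4 plus ovalbumin, ATP-MgCl2, DTT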
T cruzi inh – blocks replication of Trypanosoma cruzi | T. cruzi beta-gal in NIH3T3, luminescence, 90 h | inhibition, % (test concentration not listed) | 300,000 tested, 1.4% active;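 active means mean inhibition across valid replicates above about 55%, limit read from the data; inconclusive means mean below that limit but half or more replicates reach it; inactive means mean below it, under half of replicates reach it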;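 further: signal also drops with host cell toxicity which is not excluded here; 0% = plate median of DMSO wells and 100% = zero luminescence signal; higher percent means less beta-gal luminescence so fewer parasites; stock transfer was 50 nL into about 50 µL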
rRNA inh HTS – inhibits bacterial ribosomal RNA function over humanized ribosomes; AID 720706; GFP signal change (wild-type ribosome), % (concentration not given with the values); 350,000 tested, 1.6% active; E. coli WT GFP vs humanized-ribosome RFP mutants, fluorescence, 24 h; hits give low values; DMSO median 0, no signal -100;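 active means significant combined selectivity score with lowered wild-type GFP, culture density cut under 30%, mutant RFP and density less affected; inactive means any of these conditions unmet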; further: one replicate is shown; some compounds called inactive have numbers as strong as hits
FGF22 binding – binders of recombinant human FGF22 by thermal shift; SYPRO orange fluorescence; percent of sucrose octasulfate shift, DMSO zero; calls only at 9.99 µM; 340,000 tested, 1.5% active; AID 651658;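 active means melting point raised past a set limit in the mean and every replicate; inconclusive means no clear call; three in four hits are not shown here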
Target sequence (Q9HCT0 whole entry, looked up): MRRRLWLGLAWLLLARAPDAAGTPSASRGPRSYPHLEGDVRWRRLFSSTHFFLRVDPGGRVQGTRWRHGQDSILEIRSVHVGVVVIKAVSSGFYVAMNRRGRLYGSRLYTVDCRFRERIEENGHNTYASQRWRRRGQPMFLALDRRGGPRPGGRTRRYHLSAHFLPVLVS
Beta cell apopt – blocks beta cell apoptosis; INS-1E cytokine-induced death, ATP luminescence, 48 h; percent of positive-control rescue, neutral wells zero; 300,000 tested, 0.8% active; AID 435005; protection from apoptosis, % (concentration not given with the values);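 active means all replicates at 75% or more, or half of them and the mean; inconclusive means half reach 75% but not the mean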;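 further: 0% = cytokine-treated negative control wells and 100% = positive control rescue; higher means more ATP so stronger rescue from cytokine killing; wells of about 40 µL received 100 nL stock; the first replicate is given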
rRNA inh HTS OD600 – also measured in rRNA inh HTS; calls as there; OD600 change, %; measured here: OD600 growth;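 optical density of the mix in the first replicate; 0 = DMSO median and -100 = no signal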
rRNA inh HTS RFP – recorded beside rRNA inh HTS, whose call it bears; RFP signal change, %; measured here: RFP humanized mutant strains;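 first replicate; 0 = DMSO median and -100 = no signal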
* = called active by the depositor; i = inactive; ? = inconclusive; . = not tested or not shown. Not all compounds are listed; the hit share may differ from the screen's.

SMILES	A1 inh	AF4-AF9 inh	Ecoli growth	UCH37 DUB inh	T cruzi inh	rRNA inh HTS	rRNA inh HTS OD600	rRNA inh HTS RFP	FGF22 binding	Beta cell apopt
CC(C(=O)NCCN1C(=O)S/C(=C\c2cccs2)C1=O)N1C(=O)c2ccccc2C1=O (stereo not given)	-0.9	.	0.69	8.1	5	.	.	.	.	0
Cc1cccn2cc(CNS(=O)(=O)c3ccc4ccccc4c3)nc12	0.4	-3.5	0.64	1.3	0	4	7	4.7	i	12
O=C(NCC1CCCO1)c1ccc(NC(=O)c2cccc(Cl)c2)cc1 (stereo not given)	0.6	-0.6	0.65	1.2	-1	4	8	-0.1	i	-2
Clc1ccc(CNCc2cccs2)cc1Cl	0.5	4.1	0.66	2.0	4	-1	3	-5.7	i	-5
O=C(NC1CCCC1)C1(c2ccccc2)CCN(S(=O)(=O)c2ccccc2)CC1	0.3	.	0.7	1.5	18	7	6	-0.9	.	-5
O=C(NCCc1ccccc1)C(=O)NCC(c1ccco1)N1CCOCC1 (stereo not given)	0.7	4.9	0.71	2.6	-3	7	8	-7.0	i	-2
Cc1ccc(S(=O)(=O)NNC(=O)Nc2ccccc2F)c(C)c1	0.2	-5.0	0.68	-1.8	4	3	0	2.8	i	-2
Cc1ccc(OCCCCNC2CCCCC2)c(C)c1	0.2	2.0	0.62	-0.2	55*	-1	-12	-1.3	.	4
CCOC(=O)C1=C(C)NC(SC)=C(C#N)C1CC(C)C (stereo not given)	1.4	-5.7	0.69	-2.8	.	-13	-3	0.2	i	3
O=C(NCCN1CCOCC1)c1cc(=O)[nH]c2ccc(Br)cc12	1.3	.	0.71	0.9	-10	.	.	.	.	-2
O=C(NCc1ccc(F)cc1)C1CCCN1S(=O)(=O)c1cccc2nsnc12 (stereo not given)	.	12	0.69	6.9	3	-2	4	4.0	i	.
O=C(Nc1ccc2c(c1)OCCO2)c1cccc(Cl)c1	-8.4	-9.1	0.64	1.9	6	-10	-6	-5.1	i	.
CCc1c(C(=O)Nc2ccc(OC)cc2)[nH]c(C)c1C(C)=O	-0.3	.	0.61	3.5	-7	.	.	.	.	5
NC(=S)Nc1cccc2cc3ccccc3cc12	-4.7	.	0.65	-21	-15	.	.	.	.	.
OC(COCc1ccccc1)Cn1cnc2ccccc21 (stereo not given)	2.1	.	0.66	1.4	-3	.	.	.	.	-1
CCNC(=O)COc1ccc(S(=O)(=O)Nc2ccccc2)cc1	-1.3	8.9	0.73	3.3	-3	.	.	.	i	-2
O=c1[nH]c(-c2ccc3c(c2)OCO3)nc2c1sc(=S)n2-c1ccccc1	0.2	-0.1	0.72	-3.7	-10	10	-1	1.2	i	6
CC(C)(C)OC(=O)C[C@H]1C/C=C\C[C@@H](CC(=O)N[C@H](CO)Cc2ccccc2)C(=O)NC[C@@H](c2ccccc2)OC1=O	?	0.6	.	0.7	.	3	-3	-2.7	i	7
CCC(O)c1c(-c2ccccc2)nn(C)c1Cl (stereo not given)	-0.6	-1.5	0.69	2.9	-10	9	-1	1.4	i	-8
N#Cc1cnn(-c2ccccc2)c1NC(=O)CN1CCN(c2ccccc2)CC1	0.4	-8.3	0.68	2.5	-19	6	3	1.4	i	-2
CC(=O)N1CCCc2cc(S(=O)(=O)N(C)Cc3ccccc3)ccc21	0.3	.	0.72	0.9	5	.	.	.	.	-8
Oc1cccc2ccc(/C=C/c3ccccc3Br)nc12	-8.0	4.4	0.68	-0.5	44	-33	-57	-7.1	i	39
O=C(c1ccc(F)cc1)N1CCC(C(=O)N(Cc2ccccc2)c2ccccc2)CC1	0.4	3.0	0.68	4.8	.	-9	-24	-1.8	i	0
CCNS(=O)(=O)c1ccc(NS(C)(=O)=O)cc1	-0.1	.	0.69	0.6	-4	.	.	.	.	-6
COC(=O)CCC(=O)OC1(C)C(=O)C2=CN(CC3CC3)C(c3ccc(OC)cc3)=CC2=C(Br)C1=O (stereo not given)	0.1	.	0.67	4.0	28	.	.	.	.	-7
Cc1ccc(Nc2nc3ccccc3n3cnnc23)cc1Cl	-1.8	0.8	0.66	-115	7	10	16	-0.8	i	-5
CCOc1ccc(N2C(=O)CC(N3CCN(c4ccccc4OC)CC3)C2=O)cc1 (stereo not given)	-0.1	-0.2	0.61	-2.3	-18	3	-2	-1.1	i	-6
CC(OC(=O)CNS(=O)(=O)/C=C/c1ccccc1)C(=O)Nc1ccc(S(=O)(=O)N2CCCC2)cc1 (stereo not given)	-0.3	.	0.73	-2.1	8	.	.	.	.	-6
COc1cc(C(=O)NC(=S)NNC(=O)[C@H]2C[C@@H]2c2ccccc2)cc(OC)c1OC	0.0	-5.2	.	.	-9	-24	-23	-7.5	i	4
S=C(NCc1ccncc1)Nc1ccc(Cl)cc1	0.2	-2.1	0.65	5.7	-17	4	-1	7.4	i	-4
COc1ccc(CNC(=O)c2cc(S(=O)(=O)N3CCCCC3)ccc2Cl)cc1OC	0.1	0.8	0.69	-0.2	.	-3	17	-4.6	i	0
CCN(CC)CCNCc1cc(Cl)ccc1OCc1ccccc1F	0.0	6.9	0.68	4.0	-11	15	13	3.7	.	4
Cc1ccc(S(=O)(=O)NC2CC2)cc1[N+](=O)[O-]	1.3	-5.9	0.65	0.0	0	5	14	-6.8	i	1
COc1ccc(/C=C/C(=O)NC(C)(C)C)cc1S(=O)(=O)N1CCOCC1	-0.9	.	0.71	4.6	-3	.	.	.	.	-5
c1ccc(-c2nnc(-c3ccccn3)nn2)nc1	-7.2	.	0.67	4.6	-7	10	-8	2.0	i	1
CCN1C(=O)[C@H]2[C@@H](c3ccc(-c4cccc(Cl)c4)c(OC)c3)N3CCCC[C@@]3(C(=O)OC)[C@H]2C1=O	0.0	0.5	.	4.1	.	13	16	-1.8	i	12
COc1ccc(C(=O)OCC(=O)N(C)C2CCS(=O)(=O)C2)cc1Br (stereo not given)	-1.0	-2.5	0.66	-1.8	.	.	.	.	i	-7
CCOC(=O)C1CCN(c2cc3c(cc2NC(=O)c2ccc(F)cc2)n(C)c(=O)n3C)CC1	-0.4	-2.4	0.66	-2.9	9	-3	-8	-1.7	i	12
COc1cccc(CNC(=O)C2Cc3cc(S(=O)(=O)N4CCCC4)ccc3N2C(C)=O)c1OC (stereo not given)	0.3	1.3	0.63	-0.2	5	6	2	-0.6	i	-4
COc1cc2c(cc1OC)C(c1ccccc1O)N(C1CC(=O)N(c3ccccc3)C1=O)CC2 (stereo not given)	-1.4	.	0.69	5.5	.	.	.	.	.	-8
COc1cccc(C2CC(c3cccs3)=NN2C(=O)CSc2nc3ccccc3o2)c1OC (stereo not given)	0.2	.	0.73	-33	-4	.	.	.	.	.
O=C(CSc1ccccc1)Nc1nc2ccccc2[nH]1	0.2	.	0.63	-0.1	-8	.	.	.	.	-1
COc1ccc2c(c1)C1=NN(/C(C)=C\C(C)=O)C(c3ccccc3)C1CC2 (stereo not given)	-0.5	.	0.7	-9.6	5	.	.	.	.	-2
NC(=O)NC(=O)COC(=O)c1ccc2c(c1)C(=O)N(Cc1ccccc1)C2=O	0.0	-35	0.68	1.3	-9	5	7	-2.4	i	-6
COc1ccc(C(=O)NC(C)CCCC(C)(C)O)cc1OC1CCN(C(C)=O)CC1 (stereo not given)	0.1	-4.9	0.69	1.5	-1	-1	-5	-0.4	i	.
Cc1nnc(SCC(=O)Nc2ncc(S(=O)(=O)c3ccc([N+](=O)[O-])cc3)s2)s1	-0.9	.	0.74	3.8	15	.	.	.	.	2
O=C(N/N=C/c1ccc2c(c1)OCO2)c1cccnc1	-4.6	0.3	.	.	-9	7	5	-0.4	i	4
CC(Cc1ccc(Cl)cc1)N1CCC(n2nccc2NC(=O)C2CCCC2)CC1 (stereo not given)	-0.3	4.3	0.69	6.6	19	-14	-18	5.8	i	5
CC1Cc2ccccc2N1C(=O)C1CCCN(S(=O)(=O)c2cccc3cccnc23)C1 (stereo not given)	-0.7	3.2	0.69	4.4	.	-18	-35	-1.2	i	-7
Cc1cc2c(=O)n(Cc3ccco3)c(SCC(=O)NCc3ccco3)nc2s1	0.0	.	0.69	-0.2	7	.	.	.	.	-4
Cn1cnc([N+](=O)[O-])c1Nc1ccccc1O	-1.6	.	0.74	8.5	22	.	.	.	.	-1
O=C(CSc1nnc2c(n1)[nH]c1ccccc12)Nc1cccc(S(=O)(=O)N2CCOCC2)c1	-1.0	2.8	0.72	2.3	1	15	14	-1.7	i	-6
CCOc1ccccc1N1CCN(C(=O)c2ccc(-c3ccc(OC(C)=O)cc3)cc2)CC1	1.1	1.1	0.68	3.0	13	-23	-23	-3.1	i	-3
CN(C)c1nc(-c2ccccc2)nc(-c2ccc(Cl)cc2)c1C#N	0.2	.	0.75	-4.1	13	.	.	.	.	6
COC(=O)c1c(C)[nH]c(C(=O)OCC(=O)NCC(C)C)c1C	-0.5	.	0.71	-2.4	-3	-1	-2	0.1	.	-8
CCOC(=O)c1ccccc1NC(=O)c1c(O)c2ccccc2n(CC)c1=O	1.2	.	0.79	-0.4	.	.	.	.	.	-8
CC(C)C[C@@H]1CN=C(N)N1C[C@@H]1CCCN1C[C@@H](C(C)C)N1C[C@@H](Cc2ccccc2)N(CCCC2CCCC2)C1=N	.	15	0.46*	0.8	.	-30	-71	-9.4	i	.
CCN1CCC2(CCN(C(=O)c3cc(COc4cc(C)ccc4C)on3)C2)C1 (stereo not given)	-0.5	5.8	0.71	2.9	12	5	5	-0.3	i	-3
COc1cc(C2NC(=O)NC(c3ccccc3)=C2C(C)=O)c(Br)c(Br)c1O (stereo not given)	0.5	0.1	0.7	5.3	-13	-11	-1	-6.3	i	.
CC(C)C(=O)NN1c2ccccc2CCc2ccccc21	0.5	1.0	0.66	4.6	2	12	6	2.1	i	-3
(further entries)
SMILES	A1 inh	AF4-AF9 inh	Ecoli growth	UCH37 DUB inh	T cruzi inh	rRNA inh HTS	rRNA inh HTS OD600	rRNA inh HTS RFP	FGF22 binding	Beta cell apopt
O=C(OCc1ccccc1Cl)c1ccc(-n2cnnc2)cc1	0.6	.	0.65	0.8	-5	.	.	.	.	-3
O=C(CN1CCN(Cc2ccc3c(c2)OCO3)CC1)Nc1ccc2c(c1)OCO2	-0.3	.	0.76	6.4	-10	.	.	.	.	2
Cc1c(Br)c(C(N)=O)nn1C	0.4	.	0.66	2.3	-5	.	.	.	.	-2
O=C(NCCN1CCCCCC1)C1CCN(S(=O)(=O)N2CCOCC2)CC1	-0.5	.	0.74	5.2	-10	.	.	.	.	-8
COc1ccc(Br)cc1/C=C\C(=O)NCc1cccnc1	0.1	4.7	0.67	-1.7	41	-15	-12	0.0	i	.
Cc1cc(Cl)c(S(=O)(=O)NC(C(=O)O)C(C)C)cc1OCC(=O)NC1CCCCC1 (stereo not given)	-0.5	.	0.74	0.8	-7	.	.	.	.	-9
